Source: PubChem (National Center for Advancing Translational Sciences (NCATS))
MARV entry inh – Marburg virus entry inhibition; Potency, µM (series often up to 37.8 µM), for the others: at the top dose activity change, negative = inhibition, hits mostly inhibitors; 300,000 tested, 1.8% active; Marburg virus pseudotyped entry inhibition, cell reporter; control for the full effect not named in the record; about a third of the inactives were read at about 46 µM; AID 540276; active = well fitted inhibition curve with a large enough effect; inconclusive = small, poorly fitted or top-dose-only effect, or effect the other way; inactive = flat fitted curve, though single readings scatter; tested in HEK293 cells; about a fifth of its hits are not listed in these tables; further: on the % scale 0 is the no-effect control and ±100 the full control effect; luciferase read-out
SARS PLpro yeast – SARS-CoV PLP inhibition in yeast. S. cerevisiae expressing SARS-CoV PLpro, growth rescue; control for the full effect not named in the record. Potency, µM (titrated, usually from 32.9 µM), for the others: at the top dose activity, positive = growth rescue. 330,000 tested, 0.19% active; active means well fitted rising curve with a large enough effect; inconclusive means small, poorly fitted or top-dose-only effect; inactive means no such curve, though single readings can be large or run the other way; further: 0% is about no effect; nearly all actives have a fitted effect of over 55% in size; growth read by luminescence after 48 h
NS1 function inh – inhibitors of influenza NS1 protein function | S. cerevisiae slowed by influenza A NS1, growth recovery by OD600 | Potency, µM (top dose mostly 46.1 µM), without a hit: top-dose activity, positive = more growth | 270,000 tested, 0.4% active; active means well fitted rising curve with a large enough effect; inconclusive means small, poorly fitted or top-dose-only effect; inactive means no such curve, though single readings can be large or run the other way; further: nearly all actives have a fitted effect of over 50% in size
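Read-out: OD600 growth recovery of NS1-expressing budding yeast. Cells grown overnight at 30C in -URA glucose medium, washed, resuspended and diluted 1:100 in 2% galactose assay medium, pH 6.0. Same strain lacking NS1 served as positive control.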
Cruzain Triton – inhibitors of Trypanosoma cruzi cruzain with detergent; P25779; purified cruzain, Z-FR-AMC fluorescence, 0.01% Triton; Potency, µM, inactives show max response, negative = inhibition, hits mostly inhibitors; 200,000 tested, 0.43% active; AID 1478;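 further: plate controls were neutral wells for no effect and buffer without enzyme for full effect; nearly all actives have a fitted effect of over 40% in size; top concentration of the series not given in the record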
Target sequence (P25779 123-467 limits assumed): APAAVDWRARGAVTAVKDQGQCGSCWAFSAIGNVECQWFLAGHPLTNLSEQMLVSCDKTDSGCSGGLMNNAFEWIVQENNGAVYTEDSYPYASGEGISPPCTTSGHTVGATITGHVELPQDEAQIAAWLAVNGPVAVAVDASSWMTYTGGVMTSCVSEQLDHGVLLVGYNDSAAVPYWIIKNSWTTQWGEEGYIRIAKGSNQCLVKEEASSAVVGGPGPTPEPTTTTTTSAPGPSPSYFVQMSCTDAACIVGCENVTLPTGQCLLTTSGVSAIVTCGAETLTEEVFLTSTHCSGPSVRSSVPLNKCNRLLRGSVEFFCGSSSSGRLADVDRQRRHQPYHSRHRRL
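Cysteine protease activity tested under reducing, mildly acidic conditions (100 mM sodium acetate pH 5.5, 5 mM DTT) plus 0.01% Triton X-100. Cruzain 1.5 nM; substrate Z-FR-AMC 2 uM; 15 min compound preincubation at room temperature.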
2A StopGo – lowers the luciferase signal of an FMDV 2A StopGo reporter; human cells with a luciferase reporter of 2A StopGo recoding; control for the full effect not named in the record; 410,000 tested, 1.2% active; Potency, µM (highest dose often 57.9 µM), for the others: at the top dose signal change, negative = less light; active = well fitted falling curve with a large enough effect; inconclusive = small, poorly fitted or top-dose-only effect; inactive = no such curve, though single readings can be large or run the other way; tested in HEK293T cells; further: on the % scale 0 is the no-effect control and ±100 the full control effect; nearly all actives have a fitted effect of over 45% in size; luciferase light after 4 h
Lassa entry inh – blocks Lassa virus binding to or entry into cells; Lassa virus pseudotype entry inhibition, cell reporter; control for the full effect not named in the record; AID 540256; 300,000 tested, 1.2% active; Potency, µM (titrated, usually from 37.9 µM), without a hit: top-dose activity change, negative = inhibition, actives largely listed as inhibitors; active means well fitted inhibition curve with a large enough effect; inconclusive means small, poorly fitted or top-dose-only effect, or effect the other way; inactive means flat fitted curve, though single readings scatter; tested in HEK293 cells; further: on the % scale 0 is the no-effect control and ±100 the full control effect; nearly all actives have a fitted effect of over 50% in size; luciferase read-out
RE007 growth inh – less growth of the S. pombe RE007 Vpr strain. S. pombe RE007 Vpr strain, BacTiter-Glo ATP luminescence, 24 h; control for the full effect not named in the record. Potency, µM (series often up to 92.2 µM), inactives show top-dose activity change, negative = less growth. 360,000 tested, 0.21% active; active = well fitted falling curve with a large enough effect; inconclusive = small, poorly fitted or top-dose-only effect; inactive = no such curve, though single readings can be large or run the other way;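 further: on the % scale 0 is the no-effect control and ±100 the full control effect; nearly all actives have a fitted effect of over 50% in size; the assay follows cell death caused by Vpr and the record does not say whether a fall means rescue or toxicity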
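Fission yeast RE007 carrying one integrated HIV-1 vpr copy, seeded at OD 0.01 in PMG+AL medium with 23 nL pinned compound. Grown 24 h at 30 degrees; viability read by BacTiter-Glo luminescence after 5 min.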
Cruzain noTriton – blocks cruzain activity in detergent-free assay. Potency, µM, inactives show max response, negative = inhibition, hits mostly inhibitors. purified cruzain, Z-FR-AMC fluorescence, no detergent. P25779. 200,000 tested, 2.3% active;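 further: plate controls were enzyme without inhibitor for no effect and buffer without enzyme for full effect; nearly all actives have a fitted effect of over 40% in size; top concentration of the series not given in the record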
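Purified cruzain at 1.5 nM, pre-incubated 15 min with compound at room temperature in 100 mM sodium acetate pH 5.5, 5 mM DTT, 0.00005% Triton X-100. Reaction started with 2 uM Z-FR-AMC; AMC fluorescence increase over 60 s gives rate.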
Starred values were filed as active, the others as inactive; ? = inconclusive; nt = not tested or not shown; & = joins results of further samples; [ ] = dose if it differs, or a comment. Unless noted, the call rests on the fitted dose curve; in most records, active means well fitted curve in the direction sought with a large enough effect; inconclusive means small, poorly fitted or top-dose-only effect, or another doubt; inactive means no such curve, though single readings can be large; an effect the other way counts as inactive or inconclusive. Potency means the concentration at half of the fitted maximal effect.

SMILES	MARV entry inh	SARS PLpro yeast	NS1 function inh	Cruzain Triton	2A StopGo	Lassa entry inh	RE007 growth inh	Cruzain noTriton
Cc1ccnc(NC(=O)C23CC4CC(CC(C4)C2)C3)c1	10%	-7%	-15%	0.4%	-10%	3%	?	-6%
OCCN(Cc1ccccc1)Cc1ccc(C(F)(F)F)cc1	-1%	0%	2%	0.0%	-4%	1%	2%	1%
COc1ccc(N)cc1NC(=O)CN1CCCC1	-8%	0%	-3%	nt	-4%	12%	-5%	nt
Cc1ccc2oc(-c3cc(NC(=O)c4oc5ccccc5c4C)ccc3Cl)nc2c1	nt	nt	nt	-1.2%	24%	3%[46.1 µM]	nt	3.2µM*
CN(CC1CCCCO1)C(=O)c1cc(COc2ccc(F)cc2Cl)on1 (stereo not drawn)	-1%	0%	5%	nt	20%	-6%	6%	nt
COc1cccc(C(c2nnnn2CC2CCCO2)N2CCN(C(=O)c3ccco3)CC2)c1OC (stereo not drawn)	-5%[46.1 µM]	-1%	4%	nt	3%	-21%[46.1 µM]	18%	nt
COc1ccc(N2C(=O)NC(NC(=O)c3ccncc3)(C(F)(F)F)C2=O)cc1 (stereo not drawn)	8%	-1%	-2%	4.3%	-8%	13%	-29%	2%
Cc1ccc(CC(=O)NC2CCCc3ccccc32)cc1C (stereo not drawn)	-14%[46.1 µM]	-1%	-13%	nt	-1%	-12%	13%	nt
CCOC(=O)c1ccccc1NC(=O)CSc1nc2c(c(=O)n(C)c(=O)n2C)n1C	nt	1%	-11%	2.0%	nt	nt	nt	-1%
Cn1nnnc1SCC(=O)Nc1ccc(Oc2ccc(Cl)cc2)cc1	0%	0%	-7%	-3.8%	nt	-14%	-11%	1%
CC(=O)Nc1ccc(OCc2ccccc2)cc1[N+](=O)[O-]	?	nt	nt	nt	32%[activator]	4%	-9%	nt
CCOC(=O)c1cnc2ccccc2c1Nc1ccc2c(c1)OCCO2	-29%	14%	-20%	-1.0%	?	-25%	5%	?
COc1ccc(C(=O)Nc2cc(OC)ccc2OC)cc1	21%	-4%	-24%	2.2%	4%	3%	?	7%
CCOc1ccc(NS(=O)(=O)c2ccc3c(c2)CCCN3C(=O)C2CCC2)cc1	nt	nt	nt	-6.2%	4%	?	nt	-12%
CCCc1nnc(NC(=O)CCS(=O)(=O)Cc2ccccc2)s1	1%	-1%	5%	nt	-10%	5%	-14%	nt
COC(=O)c1cccc(NC(N)=S)c1	?	-1%	7%	nt	-8%	3%[46.1 µM]	42%	nt
O=C(CN1C(=O)c2ccc([N+](=O)[O-])cc2C1=O)Nc1nccs1	-2%[46.1 µM]	1%	1%	nt	-3%	1%	-3%	nt
CC1(C)CN(c2ccccc2)N(C(=O)c2ccc(F)cc2)C1=O	-5%	-3%	5%	6.2%	-9%	-3%	-7%	-5%
O=C(NCCCn1ccnc1)c1cc(Cl)cc(Cl)c1	3%[46.1 µM]	0%	2%	nt	0%	23%[46.1 µM]	-9%	nt
O=C(NCCN1CCOCC1)c1cc(-c2cccc(Cl)c2)on1	29%[46.1 µM]	0%	-12%	nt	41%[activator]	?	-11%	nt
CCc1ccc(C2NC(=S)NC3=C2C(=O)N(c2ccccc2OC)C(c2ccc(CC)cc2)N3)cc1 (stereo not drawn)	-7%	-19%	?	-11%	?	4%	19%	?
NNC(=S)NCc1ccccc1	11%[46.1 µM]	3%	7%	nt	-14%	?	8%	nt
Cn1ncc2c(NCCc3ccccc3)nc(Cl)nc21	-14%	nt	-3%	0.7%	-24%	-15%	-4%	11%
CC(Oc1ccccc1)C(=O)Nc1nnc(S(=O)(=O)Nc2ccccc2)s1 (stereo not drawn)	nt	3%	7%	nt	-23%	nt	7%	nt
COc1ccccc1CNC(=O)[C@H](NC(=O)C1CCN(C(=O)[C@@H](N)CCSC)CC1)C(C)C	nt	7%	3%	nt	-19%	nt	-3%	nt
Cc1ccc(N(Cc2cc3ccccc3[nH]c2=O)C(=O)c2cccs2)cc1C	-16%[46.1 µM]	1%	0%	nt	?	-8%	27%	nt
O=C(c1ccc(Cl)c(S(=O)(=O)N2CCCCC2)c1)N1CCCC1	-15%	7%	2%	nt	13%	1%	1%	nt
CCOc1ccc(CCNC(=O)COC(=O)C2=NNC(=O)CC2)cc1OCC	2%	-4%	nt	nt	-23%	13%[46.1 µM]	-9%	nt
Cc1ccc(-c2nc3ccccn3c2Nc2ccccc2)o1	6%	-30%	-14%	-7.1%	-8%	3%	-9%	5%
O=C(NCCN1CCOCC1)c1ccc2c(c1)N(Cc1ccccc1)C(=O)CS2	-9%	1%	1%	-8.7%	-28%	4%	-6%	-7%
COC/C=C/C1=CC2=CC(=O)C(C)(OC(=O)C3CCCC3)C(=O)C2=CO1 (stereo not drawn)	nt	3%	-6%	4.3%	0%	nt	-20%	-6%
CCN(CC)S(=O)(=O)c1cc(-c2nnc(-c3ccc(Br)cc3)o2)ccc1Cl	?	-2%	-9%	0.1%	?	?	2%	-16%
CCn1c(SCC(=O)NCc2ccccc2)nnc1-c1c[nH]c2ccccc12	20%	-2%	1%	7.3%	-6%	-18%	5%	-5%
COc1ccc(OCCCC(=O)Nc2ncn[nH]2)cc1	24%[46.1 µM]	-1%	nt	nt	3%	?	-1%	nt
C/C(=N\NC(=O)C1CCCC1)c1ccc(Cl)cc1	nt	8%	?	nt	25%	nt	0%	nt
CC1CCCN1CC#CC(O)(c1ccccc1)c1ccccc1 (stereo not drawn)	-2%[14.2 µM]	1%	3%	nt	-5%	-4%	-1%	nt
CCc1ccc(Nc2nnc(SCC(=O)NC(=O)c3cccn3C)s2)cc1	nt	0%	6%	nt	-17%	nt	-6%	nt
CCOC(=O)c1cnc2ccc(Br)cc2c1NCC(C)O (stereo not drawn)	15%&15%	4%	-1%	-3.6%	-2%	4%	0%	-2%
CCN=c1scc(-c2ccco2)n1/N=C/c1ccc(OC)c(O)c1	10%	nt	-74%	-8.1%	-5%	?	2%	-12%
O=c1c2ccccc2nc(SCc2nnc(-c3ccccc3Br)o2)n1Cc1ccco1	-3%	-3%	?	0.0%	nt	?	14%	?
CCOC(=O)c1cccc(P(=O)(C(C)(C)C)C(C)(C)C)c1	16%	15%	-6%	1.1%	-17%	4%	-5%	1%
CCSc1oc(-c2cccs2)nc1S(=O)(=O)c1ccccc1	nt	12%	-5%	-10%	-1%	nt	-10%	-17%
c1ccc(CC(Cc2ccccc2)c2ccccn2)cc1	-19%	nt	nt	nt	-8%	22%	-11%	nt
CS(=O)(=O)N(CC(=O)NCCSc1ccccn1)c1cccc2ccccc12	2%	1%	6%	-2.1%	-3%	-3%	-7%	-1%
CCOc1cc(/C=N/NC(=O)c2cc3c(ccc4ccccc43)o2)ccc1O	nt	-3%	20%	nt	-24%	nt	12%	nt
CCOC(=O)c1cnc2c(-c3ccccc3)cnn2c1N	?	-3%	3%	4.1%	24%	?	6%	?
CCOC(=O)CSc1nnc(-c2ccccc2)c(=O)[nH]1	1%	0%	-1%	0.8%	9%	-1%	0%	-10%
Cc1ccc(C(=O)Nc2ccc(OCc3ccccc3)cc2)cc1[N+](=O)[O-]	-16%	3%	-2%	-1.7%	-5%	?	2%	13µM*
C[C@@H](C(=O)CC(=O)OC(C)(C)C)[C@@H](O)c1ccccc1	nt	-2%	15%	nt	3%	nt	6%	nt
COc1ccc(N2CCN(CC(O)COc3cc(C)ccc3C)CC2)cc1 (stereo not drawn)	nt	0%	0%	nt	?	nt	-9%	nt
CCCN1C2=NCCN2c2ccccc21	-20%[46.1 µM]	0%	-3%	1.7%	-18%	-3%	-10%	14%
Cc1cc(=O)oc2cc(OCC(=O)Nc3cccnc3)ccc12	8%[46.1 µM]	-7%	nt	nt	-2%	-10%[46.1 µM]	0%	nt
CCCn1c(-c2ccc(OC)cc2)nc2ccccc21	1%	-14%	-125%	2.7%	-13%	-1%	-10%	8%
CC(NC(=O)c1ccccc1)C(=O)N/N=C/c1ccco1 (stereo not drawn)	-6%[46.1 µM]	2%	-5%	nt	13%	8%[46.1 µM]	20%	nt
COc1cccc2c1OCC([C@@H]1C[C@H]3CN(Cc4cccc(Cl)c4)C(=O)[C@]34CCCN14)=C2	11%[46.1 µM]	0%	-7%	nt	-17%	?	-17%	nt
Cc1cccc(NC(=O)CSc2nnc(-c3ccc(S(=O)(=O)N4CCCC4)cc3)o2)c1	2%	0%	-13%	-6.9%	0%	-1%	16%	0%
CC(=O)c1c(C)[nH]c(C(=O)COc2ccc(C#N)cc2)c1C	-7%	1%	-13%	1.7%	-25%	-2%	2%	-21%
CCCCn1c(=O)c(C(=O)NC(C)c2ccccc2)c(O)c2ccccc21 (stereo not drawn)	-6%[46.1 µM]	-7%	0%	nt	-21%	-5%[46.1 µM]	5%	nt
O=c1[nH]cnc2nc3n(c12)CCCCC3	-4%	1%	?	-4.1%	-16%	-6%	-2%	-12%
COc1ccc(CCn2ccc(O)c(Cc3c(F)cccc3Cl)c2=O)cc1OC	nt	3%	5%	nt	?	nt	6%	nt
(list continues)
SMILES	MARV entry inh	SARS PLpro yeast	NS1 function inh	Cruzain Triton	2A StopGo	Lassa entry inh	RE007 growth inh	Cruzain noTriton
O=C(Nc1ccccc1)c1cccc(C(F)(F)F)c1	?	-8%	-3%	-4.4%	6%	6%	-1%	-3%
Cc1c(C(=O)O)sc(=S)n1-c1ccc(Cl)cc1	5%	1%	13%	0.5%	nt	4%	-1%	-13%
CCOc1ccc(NC(=O)NC(CC)Cn2nnc3ccccc3c2=O)cc1 (stereo not drawn)	?	nt	nt	2.8%	-18%	10%[46.1 µM]	nt	7%
OCCNc1nc2ccccc2n1-c1ccccc1	-2%	6%	-9%	4.4%	-1%	?	-6%	1%
CC(c1ccon1)N(C)C(=O)CCc1nnc(Cc2ccc(-c3ccccc3)cc2)o1 (stereo not drawn)	nt	1%	-1%	nt	2%	nt	5%	nt
Cc1nnc(N2CCCC(C(=O)NCCc3ccccc3)C2)c2nn(-c3ccccc3)c(C)c12 (stereo not drawn)	nt	nt	nt	-7.2%	4%	?	nt	-1%
